Methyltransferases = Primary Screen for Target Class Profiling of Small Molecule Inhibitors of Methyltransferases; calls only at 40 µM; AID 1745853, 2022; 25,000 compounds, 3.9% hits; purified enzyme, MTase-Glo SAH luminescence; stronger effect = lower value; active = -50% or lower on at least one of six enzymes; inconclusive = the cases between; inactive = as a rule above -30% on all six;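 further: enzymes were COMT GAMT GNMT HNMT NNMT and PNMT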
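Each enzyme was reacted with SAM and its substrate, with compounds tested once at 40 uM; SAH formed was read by MTase-Glo luminescence.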
Calls only; i = inactive; u = inconclusive; + = active, no number. On the % scale 0 is the no-effect control and ±100 the full control effect. This is a subset. The share of hits here may be higher or lower than overall.

SMILES | Methyltransferases
COC(=O)C1=COC(OC2OC(CO)C(O)C(O)C2O)C2C(C)C(OC(C)=O)C(OC(=O)c3ccccc3)C12 (configuration not stated) | i
COc1ccc(Cn2c(=O)c3ccccc3n3c(-c4ccc(NC(C)=O)cc4)nnc23)cc1 | i
Cc1ccc(NC(=O)Cn2nc3n(C(C)C)c(=O)c4ccc(C(=O)NC(C)C)cc4n3c2=O)c(Cl)c1 | i
COCCCN1C(=O)c2ccc(-c3ccco3)n2CC1(C)C(=O)NC1CCCCCCC1 (configuration not stated) | i
CC1(C(=O)NC2CCCCCC2)Cn2c(cc3occc32)C(=O)N1CC1CCCO1 (configuration not stated) | i
CCCCNC(=O)c1cc2n(n1)CC(C)(C(=O)NC1CCCCCC1)N(C)C2=O (configuration not stated) | i
C[C@@H]1O[C@@H](O[C@H]2[C@H](O)[C@@H](C(=O)O)O[C@@H](O[C@H]3CC[C@@]4(C)C(CC[C@]5(C)C4CC=C4C6CC(C)(C)CC[C@]6(C(=O)O)CC[C@]45C)C3(C)C)[C@@H]2O[C@@H]2O[C@H](CO)[C@@H](O)[C@H](O)[C@H]2O)[C@H](O)[C@H](O)[C@H]1O (some centres not stated) | i
CC1CCN(c2nc3c(S(=O)(=O)c4ccccc4)nnn3c3ccc(Cl)cc23)CC1 | i
COCCn1c(C)cnc1CCNC(=O)c1cc(C)nn1C | i
Cc1cc(C)c(NS(=O)(=O)c2ccc3[nH]c4c(c3c2)CCCC4)c(C)c1 | i
CCN1C(=O)c2cc(C(=O)Nc3ccc(F)cc3)nn2CC1(C)C(=O)NC1CCCC1 (configuration not stated) | i
Fc1cccc(-c2cc(-c3cn[nH]c3)c3cncn3c2)c1 | i
Cc1cccc(NC(=O)N2CCn3cccc3C2C)c1C (configuration not stated) | i
COc1ccccc1CN1C(=O)c2nc3ccccc3n2CC1(C)C(=O)NC1CCC(C)CC1 (configuration not stated) | i
CC[C@@]1(O)CCN(C(=O)c2ccc(CSc3ccccc3)o2)C[C@H]1O | i
O=C(O)c1cccc(S(=O)(=O)N2CCc3ccccc3C2)c1 | i
CCCn1c(=O)c2cc(Cl)ccc2n2c(SCC(=O)Nc3ccccc3OC)nnc12 | i
CCCS(=O)c1ccc2nc(NC(=O)OC)[nH]c2c1 (configuration not stated) | u
CC1(C(=O)NC2CCCCC2)Cn2c(nc3ccccc32)C(=O)N1CCCc1ccccc1 (configuration not stated) | i
COC(=O)C[C@H]1C(C)(C)[C@H](OC(C)=O)C2CC3=C4CC(=O)O[C@@H](c5ccoc5)[C@]4(C)CCC3[C@@]1(C)C2=O (some centres not stated) | i
COc1ccc(C(=O)NCc2cc(C(C)C)no2)cc1OC1CCN(C)CC1 | i
O=C([C@@H]1C[C@@H]2C=C[C@H]1C2)N1CCc2c(nc(-c3cccnc3)[nH]c2=O)C1 | i
COc1ccnc(CS(=O)c2nc3cc(OC(F)F)ccc3[nH]2)c1OC (configuration not stated) | u
CNC(=O)CCn1ncc2cc(OCc3ccccc3-c3ccc(F)c(Cl)c3)ccc21 | i
CCn1ccnc1CN(C)Cc1cccc(OCC(O)CN(C)C2CCCCC2)c1 (configuration not stated) | i

Arranged by length of the SMILES (highest first): part of the list above
SMILES | Methyltransferases
C[C@@H]1O[C@@H](O[C@H]2[C@H](O)[C@@H](C(=O)O)O[C@@H](O[C@H]3CC[C@@]4(C)C(CC[C@]5(C)C4CC=C4C6CC(C)(C)CC[C@]6(C(=O)O)CC[C@]45C)C3(C)C)[C@@H]2O[C@@H]2O[C@H](CO)[C@@H](O)[C@H](O)[C@H]2O)[C@H](O)[C@H](O)[C@H]1O (some centres not stated) | i
Cc1ccc(NC(=O)Cn2nc3n(C(C)C)c(=O)c4ccc(C(=O)NC(C)C)cc4n3c2=O)c(Cl)c1 | i
CC1CCN(c2nc3c(S(=O)(=O)c4ccccc4)nnn3c3ccc(Cl)cc23)CC1 | i
CCn1ccnc1CN(C)Cc1cccc(OCC(O)CN(C)C2CCCCC2)c1 (configuration not stated) | i

Further compounds follow:
SMILES | Methyltransferases
N#Cc1ccc(Nc2nc(-c3ccc(O)cc3O)cs2)cc1C(F)(F)F | u
COCCNC(=O)c1cc2n(n1)CC(C)(C(=O)NC1CCCCCC1)N(C)C2=O (configuration not stated) | i
O[C@]12CCNC[C@H]1CN(Cc1cccc(N3CCOCC3)c1)CC2 | i
O=C1CO[C@H]2CN(Cc3ccncc3)C[C@H]2N1Cc1ccc(F)cc1 | i
Cc1ccc(CN2C(=O)c3ccccc3CC2(C)C(=O)NCc2ccccc2C)cc1 (configuration not stated) | i
CCOc1cc(CNC(=O)c2cc3n(n2)CC(C)(C(=O)NCc2ccc(F)cc2)N(C)C3=O)ccc1OC (configuration not stated) | i
O=c1c2ccccc2n2c(=O)n(Cc3cccc(F)c3)nc2n1Cc1ccc(F)cc1 | i
O=C(O)c1ccccc1Nc1ccccc1 | i
O=C(O[C@H]1[C@@H]2C[C@@H]3OC[C@](O)([C@@H]1Cl)[C@H]2C(O[C@@H]1O[C@H](CO)[C@@H](O)[C@H](O)[C@H]1O)O3)c1ccc(O)c(O)c1 (some centres not stated) | i
CC(C(N)=O)N1CCn2nc(CCC(=O)N3CCOCC3)cc2C1 (configuration not stated) | i
C[C@H]1[C@H](C)CC[C@]2(C(=O)O)CC[C@]3(C(=O)O)C(=CCC4[C@@]5(C)CC[C@H](O[C@@H]6O[C@H](C)[C@@H](O)[C@H](O)[C@H]6O)C(C)(C)C5CC[C@]43C)[C@H]12 (some centres not stated) | i
Cc1ccc(Cn2c(=O)c3ccccc3n3c(CCC(=O)NCCCOC(C)C)nnc23)cc1 | i
OCC1=C[C@@H](O)[C@@H]2C=CO[C@@H](O[C@@H]3O[C@H](CO)[C@@H](O)[C@H](O)[C@H]3O)[C@H]12 | i
CC(C)(C)OC(=O)NCCCC(=O)NCc1ccnc2[nH]ccc12 | i
CC(C)CCNC(=O)C1(C)Cn2c(cc3ccccc32)C(=O)N1c1ccc(F)cc1 (configuration not stated) | i
CC1(C)CCCC2(C)C=C(C(=O)O)C(O)CC12 (configuration not stated) | i
Cc1ccc(-c2c(C(=O)CF)n(CCCO)c3ncnc(N)c23)cc1 | i
NC(=O)CN1CCC(c2nc(-c3ccc4nc[nH]c4c3)no2)CC1 | i
COc1ccccc1CNc1nc2c(S(=O)(=O)c3ccc(C)cc3)nnn2c2ccccc12 | i
O=C(O)C1CCCNC1 (configuration not stated) | i
Cc1noc2c(NC3CCN(C)CC3)cc(-c3cccs3)nc12 | +
O=C(Nc1ccc2c(c1)OCCO2)N1CCCCC1c1nc(CCOCC2CC2)no1 (configuration not stated) | i
CC(CN1C(=O)c2cc3ccccc3n2CC1(C)C(=O)NCc1ccccc1)c1ccccc1 (configuration not stated) | i
C1CCC[C@H]2CCCN3CC[C@@H](CCCCCC[C@@H]4CCCN5CC[C@@H](CC1)O[C@@H]45)O[C@@H]23 | u
CC1(C)OC(=O)C=C[C@@]2(C)C1CC(=O)[C@]1(C)C2CC[C@@]2(C)[C@H](c3ccoc3)OC(=O)[C@H]3O[C@]321 (some centres not stated) | i

3 of the compounds above, with tabs:
structure	Methyltransferases
Cc1cc(C)c(NS(=O)(=O)c2ccc3[nH]c4c(c3c2)CCCC4)c(C)c1	i
CCN1C(=O)c2cc(C(=O)Nc3ccc(F)cc3)nn2CC1(C)C(=O)NC1CCCC1 (configuration not stated)	i
Fc1cccc(-c2cc(-c3cn[nH]c3)c3cncn3c2)c1	i

Continued:
SMILES | Methyltransferases
Cc1ncc([N+](=O)[O-])n1CC(O)CN1CCOCC1 (configuration not stated) | i
COCCN1C(=O)c2cccn2CC1CNS(=O)(=O)c1c(C)noc1C (configuration not stated) | i
Cc1ccc(-c2n[nH]n3c2nc(=O)c2ccc(C(=O)NCCC(C)C)cc23)cc1 | i
c1ccc2[nH]c([C@H]3CCN(CC4CCCCC4)C3)nc2c1 | u
CCC(C)NC(=O)c1ccc2c(=O)n(CC(C)C)c3nn(Cc4ccccc4)c(=O)n3c2c1 (configuration not stated) | i
COc1cc(C)c(-c2nc(Cn3cccn3)c(C)o2)cc1C | i
COc1cc(-c2cc(-c3cccc(O)c3)cnc2N)cc(OC)c1OC | i
CC(C)Cn1c(=O)c2ccccc2n2c(=O)n(CC(=O)Nc3ccc(F)cc3)nc12 | i
CCC(C(=O)N1CCN(c2ccccc2)CC1)n1ccc2cc(S(=O)(=O)N3CCCCC3)ccc21 (configuration not stated) | i
CC(=O)OC1C(C)C2C(OC3OC(CO)C(O)C(O)C3O)OC=C(C(=O)O)C2C1OC(=O)c1ccccc1 (configuration not stated) | i
CCC(C)N1C(=O)c2ccc(-c3ccco3)n2CC1(C)C(=O)NC1CCCCCC1 (configuration not stated) | i
CC[C@@H](C)[C@H](NC(=O)C(C)(C)NC(=O)[C@H](CCC(N)=O)NC(=O)C(C)(CC)NC(=O)[C@H](Cc1c[nH]c2ccccc12)NC(C)=O)C(=O)N[C@H](C(=O)NC(C)(C)C(=O)N[C@@H](CC(C)C)C(=O)NC(C)(C)C(=O)N1CCC[C@H]1C(=O)N[C@@H](CCC(N)=O)C(=O)NC(C)(C)C(=O)N1CC(O)C[C@H]1C(=O)NC(C)(CC)C(=O)C1CC[C@@H](C(=O)N[C@@H](Cc2ccccc2)C(=O)NCC(=O)O)N1)C(C)O (some centres not stated) | i
Cc1nc2cnccn2c1C(=O)NCc1ccccc1 | i
CCOc1ccc(CN2C(=O)c3cc4occc4n3CC2(C)C(=O)NC2CCCCCC2)cc1 (configuration not stated) | i
CCCn1c(=O)c2ccc(Cl)cc2n2c(=O)n(CC(=O)NCc3ccccc3Cl)nc12 | i
CC1CCC(NC(=O)C2(C)Cn3c(cc4occc43)C(=O)N2Cc2ccccc2Cl)CC1 (configuration not stated) | i
O=C(/C=C/c1ccc(O)cc1)O[C@H]1[C@H](OC2CCCCC2O)O[C@H](CO)[C@@H](O)[C@@H]1O (some centres not stated) | i
Cc1nc(-c2cccnc2)sc1C(=O)Nc1ccccc1-c1cn2c(CN3CCOCC3)csc2n1 | u
CCN1CCN(CCNC(=O)c2cc3n(n2)CC(C)(C(=O)NCc2ccc(F)cc2)N(C)C3=O)CC1 (configuration not stated) | i
CC1CCCC(NC(=O)C2(C)Cn3c(cc4occc43)C(=O)N2Cc2ccccc2F)C1C (configuration not stated) | i
CC1(C(=O)NCc2ccccc2)Cn2nc(-c3ccccc3)cc2C(=O)N1CCc1ccc(Cl)cc1 (configuration not stated) | i
CC(=O)Nc1c2n(c3ccccc13)CC(C)(C(=O)NC1CCCCC1)N(Cc1ccco1)C2=O (configuration not stated) | i
CCc1ccc(N2C(=O)c3cc4ccccc4n3CC2(C)C(=O)NCc2ccccc2OC)cc1 (configuration not stated) | i
Cc1cc2c(cc3n2CC(C)(C(=O)NC2CCCCCC2)N(Cc2ccc(F)cc2)C3=O)o1 (configuration not stated) | i
CC(C)COc1cc(=O)n2c(c1C(=O)NCCCN1CCOCC1)CCCCC2 | i

Structures above containing an aryl thioether with sulfur outside any ring (2):
SMILES | Methyltransferases
CC[C@@]1(O)CCN(C(=O)c2ccc(CSc3ccccc3)o2)C[C@H]1O | i
CCCn1c(=O)c2cc(Cl)ccc2n2c(SCC(=O)Nc3ccccc3OC)nnc12 | i

Additional results
SMILES | Methyltransferases
COc1ccc(-c2cc3n(n2)CC(C)(C(=O)NCc2ccccc2)N(Cc2ccc(Cl)cc2)C3=O)cc1 (configuration not stated) | i
Cn1c2c(c3ccccc31)C(C(=O)NCc1ccccc1)N(CCc1ccc(Cl)cc1)C(=O)CS2 (configuration not stated) | i
CCOc1ccccc1CN1C(=O)c2cc3sccc3n2CC1(C)C(=O)NC1CCCCCC1 (configuration not stated) | i
O=C(O)Cc1cn([C@@H]2OC[C@@H](O[C@@H]3O[C@H](CO)[C@@H](O)[C@H](O)[C@H]3O)[C@H](O)[C@H]2O[C@@H]2O[C@H](CO)[C@@H](O)[C@H](O)[C@H]2O)c2ccccc12 | i
CN1C(=O)c2cc(C(=O)N3CCN(C4CCCCC4)CC3)nn2CC1(C)C(=O)NC1CCCCCC1 (configuration not stated) | i
COc1c(C)c(C(=O)c2ccc(N)c(C(=O)O)c2)n2ccccc12 | u
CN1CC(=O)N(C2CCCC2)Cc2c(NC3CCCC3)ncnc21 | i
O=C(Cc1ccc(F)cc1)N1CCC2(COc3ccncc3[S+](=O)([O-])N2)C1 (configuration not stated) | i
CC(C)CC(=O)N1C(C(=O)NCC2CCCO2)COC12CCC(C)CC2 (configuration not stated) | i
COc1ccc(NC(=O)Cn2nc3n(CC(C)C)c(=O)c4ccccc4n3c2=O)cc1OC | i
Cc1cnn(CCC(=O)NC2CCc3nnc(C)n3CC2)c1 (configuration not stated) | i
Cc1ccc(CN2C(=O)c3cc4sccc4n3CC2(C)C(=O)NC2CCC(C)CC2)cc1 (configuration not stated) | i
O=C(c1ccc(Cl)nc1)N1CCC(C(=O)N2CCC(N3CCCC3=O)CC2)CC1 | i
COCCCNC(=O)C1(C)Cn2nc(-c3ccccc3)cc2C(=O)N1Cc1cc(OC)ccc1OC (configuration not stated) | i
CCCc1ccc(CN2CCC(c3nnc(Cn4ccnc4)n3C3CC3)CC2)o1 | i
CCc1cccc(NS(=O)(=O)c2cc3c(cc2C)n(C)c(=O)n3C)c1 | i
CCOC(=O)c1cc2n(n1)CC(C)(C(=O)NCc1ccc(F)cc1)N(CCc1ccc(Cl)cc1)C2=O (configuration not stated) | i
CCCNC(=O)NCC1c2cc(OC)c(OC)cc2CCN1C(=O)NCC (configuration not stated) | i
[N-]=[N+]=Nc1ccc(C(=O)CSC[C@H](NC(=O)CC[C@H](N)C(=O)O)C(=O)NCC(=O)O)cc1 | i
CCc1cccc(NC(=O)Cn2nc3n(C)c(=O)c4ccc(C(=O)NC5CCCC5)cc4n3c2=O)c1 | i
Cc1ccc2c(c1)c(-n1cccc1)c1n2CC(C)(C(=O)NC2CCCC2)N(Cc2ccco2)C1=O (configuration not stated) | i
O=C(NCCCCCCCCNC(=O)C(Cl)Cl)C(Cl)Cl | i

Quoted from the listing, 2 compounds:
SMILES | Methyltransferases
Cc1ccc2c(c1)c(-n1cccc1)c1n2CC(C)(C(=O)NC2CCCC2)N(Cc2ccco2)C1=O (configuration not stated) | i
O=C(NCCCCCCCCNC(=O)C(Cl)Cl)C(Cl)Cl | i
